# Hsc70 ATP site – Hsc70 inhibitors, probe displacement, primary screen, biochemical, fluorescence polarization (AID 568) | 83,000 tested, under 10 active | Heat shock cognate 71 kDa protein (Homo sapiens) | displacement, % at 20 µM, or IC50 in µM where a hit was titrated | Hsc70 fluorescence polarization, probe displacement; higher % means a stronger effect; strong numbers were not always called active;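 active = displacement above 50% without optical interference and an IC50 on retest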;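 note: ATPase domain with a fluorescein-tagged ATP probe; 0% = vehicle and 100% = excess ADP; read after one hour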
# MT1-MMP promoter – inhibitors of MT1-MMP promoter transcription, cell-based, luciferase reporter, luminescence (AID 618) | MT1-MMP promoter luciferase reporter cells, luminescence | calls from a first round at 10 µM; hits with a dose series show EC50 in µM | 87,000 compounds, 0.62% hits;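 active = over half of the reporter light lost at 10 µM or EC50 under 50 µM; inactive = the rest and hits that failed the dose series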;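 note: actives suppress MT1-MMP promoter-driven transcription so potencies describe inhibitors; HT1080 fibrosarcoma cells; overnight exposure; toxic or luciferase-blocking compounds were not removed from the actives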
# WNV protease inh – inhibitors of WNV NS2B-NS3 protease, primary screen, biochemical, fluorogenic substrate | fluorogenic substrate Ex360/Em465; hits give low values | z-score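 (tested at a level between 10 and 100 µM)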 | 65,000 compounds, 0.18% hits | Genome polyprotein (West Nile virus), P06935;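 active = z-score at -3 or under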;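 note: score is relative to mean and spread of the compound wells of a plate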
# Target sequence (P06935 1371-1501 limits assumed): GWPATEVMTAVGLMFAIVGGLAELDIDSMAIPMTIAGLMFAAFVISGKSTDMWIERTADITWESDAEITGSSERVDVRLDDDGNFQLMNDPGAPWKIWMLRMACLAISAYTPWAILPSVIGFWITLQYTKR
# Target sequence (P06935 1502-1679 limits assumed): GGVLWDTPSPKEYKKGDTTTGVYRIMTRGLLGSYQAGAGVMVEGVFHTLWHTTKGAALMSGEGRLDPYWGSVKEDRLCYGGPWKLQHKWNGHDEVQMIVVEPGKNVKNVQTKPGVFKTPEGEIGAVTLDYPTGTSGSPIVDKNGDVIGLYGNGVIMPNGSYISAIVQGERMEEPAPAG
# Active calls of the source: *; i = inactive; . = no result given.
# Preview, five compounds:
SMILES,Hsc70 ATP site,MT1-MMP promoter,WNV protease inh
O=C(CN1C(=O)C2C3C=CC(C3)C2C1=O)Nc1nc(SCc2ccc(Cl)cc2)n[nH]1 (centres undefined),1.7%,i,-0.12
COC(=O)CSc1nc2nc(C)c(Br)cc2[nH]1,3.6%,i,.
CCCNS(=O)(=O)c1ccc(CCC(=O)NCc2ccco2)cc1,-0.7%,i,1.2
O=C(Nc1ccccc1C(=O)N1CCOCC1)c1cccc(S(=O)(=O)N2CCCC2)c1,-3.1%,i,0.7
COc1ccc(-c2noc(Cc3cccs3)n2)cc1,0.1%,i,-0.64

# Main list, repeating the preview:
SMILES,Hsc70 ATP site,MT1-MMP promoter,WNV protease inh
O=C(CN1C(=O)C2C3C=CC(C3)C2C1=O)Nc1nc(SCc2ccc(Cl)cc2)n[nH]1 (centres undefined),1.7%,i,-0.12
COC(=O)CSc1nc2nc(C)c(Br)cc2[nH]1,3.6%,i,.
CCCNS(=O)(=O)c1ccc(CCC(=O)NCc2ccco2)cc1,-0.7%,i,1.2
O=C(Nc1ccccc1C(=O)N1CCOCC1)c1cccc(S(=O)(=O)N2CCCC2)c1,-3.1%,i,0.7
COc1ccc(-c2noc(Cc3cccs3)n2)cc1,0.1%,i,-0.64
COC(=O)c1sccc1NC(=O)c1ccc(Br)o1,-1.0%,i,-0.1
COC(=O)C1=C(N)Oc2cc(C)n(CCCn3ccnc3)c(=O)c2C1c1ccc(Cl)cc1 (centres undefined),-6.8%,i,0.71
CCN1CCC(C(=O)NC2CCCC2)(N(Cc2cccs2)C(=O)Cn2nnc3ccccc32)CC1,-1.7%,i,-0.28
Cn1c(-c2sc3ccccc3c2Cl)n[nH]c1=S,2.4%,i,.
COc1cccc(OC)c1C(=O)Nc1ccc2c(c1)OCCO2,-0.7%,i,0.34
Nc1nnnn1/N=C/c1ccccn1,0.9%,i,0.62
Cn1nnc2cc(C(=O)N3CCC(c4ccccc4)C3)ccc21 (centres undefined),-0.5%,i,1
COCCNC(=O)C(C)N1c2cccc3cccc(c23)S1(=O)=O (centres undefined),1.3%,i,.
O=C(c1ccco1)N1CCN(CCOCCOc2cccc3ccccc23)CC1,2.6%,i,-0.6
CCOC(=O)Cn1c(=O)oc2cc(S(=O)(=O)N3CCc4ccccc43)ccc21,3.7%,i,2.2
Cc1ccc(Cn2ncc3c(N4CCOCC4)ncnc32)cc1,5.1%,i,0.61
Cc1cc(N2CCCCC2)nc(N2CCOCC2)n1,6.0%,i,.
O=C1NC(NS(=O)(=O)c2ccc(Cl)cc2)(C(F)(F)F)C(=O)N1Cc1cccnc1 (centres undefined),-0.4%,i,.
Cc1onc(-c2ccccc2Cl)c1C(=O)Nc1c(C)n(C)n(-c2ccccc2)c1=O,7.7%,i,2.4
CCn1c(SCC(=O)Nc2ccc(S(=O)(=O)Nc3ccccn3)cc2)nnc1-c1ccncc1,1.6%,i,-0.85
Nc1nncn1C(=O)c1cc(Br)ccc1Cl,-2.2%,i,-0.44
CC(C)C(=O)Nc1cc2c(cc1C(=O)c1ccccc1)OCCO2,-0.4%,i,-0.97
Cc1cc(C)n(CC(=O)O)n1,1.2%,i,-1.5
Cc1cc(C)c(S(=O)(=O)c2ccccc2)c(OC(=O)c2ccc(Cl)cc2Cl)n1,1.8%,i,.
Cc1c(C(=O)N2CCCC2)sc(NC(=O)c2cccc(Cl)c2)c1C#N,4.2%,i,.

# Entries listed so far containing bromine (three):
SMILES,Hsc70 ATP site,MT1-MMP promoter,WNV protease inh
COC(=O)CSc1nc2nc(C)c(Br)cc2[nH]1,3.6%,i,.
COC(=O)c1sccc1NC(=O)c1ccc(Br)o1,-1.0%,i,-0.1
Nc1nncn1C(=O)c1cc(Br)ccc1Cl,-2.2%,i,-0.44

# The list goes on:
SMILES,Hsc70 ATP site,MT1-MMP promoter,WNV protease inh
CCCCNC(=O)CCCn1c(=S)[nH]c2cc3c(cc2c1=O)OCO3,1.2%,i,-1
O=C(Nc1c(F)cc(F)cc1Br)c1cc2nc(C(F)F)cc(C(F)F)n2n1,2.3%,i,0.25
CCOC(=O)Cn1nc(C)c2c1CCCC2=O,-1.1%,i,.
CCN(CCO)Cc1cn[nH]c1-c1ccc(C)c(C)c1,2.0%,i,0.49
Cc1cc(Nc2cccc(Cl)c2)n2ncnc2n1,4.1%,i,-1.2
CC1CCCN(C(c2ccccc2)c2sc3ncnn3c2O)C1 (centres undefined),-2.2%,i,-0.24
O=C(C[n+]1ccc(C(=O)N/N=C/c2ccc(OCc3ccccc3)cc2)cc1)c1ccccc1,0.7%,i,.
COc1ccccc1NC(=O)c1ccc(NS(=O)(=O)c2c(C)noc2C)cc1,-4.0%,i,-1.2
O=C(Cn1c(-c2ccco2)nc2ccccc21)N1CCCCC1,0.6%,i,0.88
Cc1ccc2c(CC(=O)Nc3ccc(N4CCN(C)CC4)cc3C)coc2c1,-2.9%,i,0.5
Cc1nc(Nc2nc(-c3ccccc3)cc(=O)[nH]2)nc2ccccc12,-13%,i,0.88
CC(C)(C)c1ccc(S(=O)(=O)O/N=C2/CCCCC2c2ccc([N+](=O)[O-])cc2[N+](=O)[O-])cc1 (centres undefined),3.2%,i,.
O=C(CSc1nnc(Cc2ccc3c(c2)OCO3)n1C1CCCCC1)NC1CCCC1,3.4%,i,.
COc1ccc(C(=O)COC(=O)CCCn2c(=O)oc3ccccc32)cc1,2.9%,i,-0.16
N#CC1=C(N)C(C#N)(C#N)C(c2cccnc2)C2COCC=C12 (centres undefined),2.0%,i,0.29
N#CC1=C(N)SC(N)=C(C#N)C1c1cccc(Oc2ccccc2)c1,-73%,i,1.1
CC(=O)c1c(C)nc(-c2ccc(Cl)cc2)nc1NC(=O)C(C)C,-5.2%,i,-0.35
O=C(NC1CCCCC1)C(c1ccccc1)N1CCC2(CC1)OCCO2 (centres undefined),-5.3%,i,-0.73
Cc1ccccc1C(=O)Nc1ccc2nc3n(c(=O)c2c1)CCC3,-2.2%,i,0.1
O=C(Nc1nccs1)c1ccc(Cl)c(S(=O)(=O)N2CCCCC2)c1,-3.3%,i,-0.45
COc1ccc(-c2nc3cc(NC(=O)c4ccc5c(c4)OCO5)ccc3o2)cc1,-3.5%,i,-0.55
CCOC(=O)N1CCC(O)(c2cc(C)c(C)cc2C)CC1,-6.2%,i,-0.43
COc1ccc(-n2c(Cc3cccs3)nnc2SCC(=O)Nc2ccc3c(c2)OCCO3)cc1,-5.3%,i,0.91
CCc1nnc(NC(=O)CN2CCC(O)(c3ccccc3OC)CC2)s1,0.3%,i,-0.21
CCOC(=O)c1ccc(CNC(=O)CSc2nc(NC(=O)c3ccccc3)c3c(C)c(C)oc3n2)cc1,-5.2%,i,.

# Carrying on:
SMILES,Hsc70 ATP site,MT1-MMP promoter,WNV protease inh
Cn1c(NC(=O)c2ccccc2C(F)(F)F)cc(=O)n(C)c1=O,6.4%,i,0.38
CCOC(=O)C(NC(=O)c1ccccc1)(OCC1(CC)COC1)C(F)(F)F (centres undefined),-2.3%,i,.
Cc1noc(C)c1C(=O)Nc1sc(C)c(-c2ccccc2)c1C#N,3.0%,i,-0.68
Cc1ccccc1COc1ccc(/C(O)=C2/C(=O)C(=O)N(CCCn3ccnc3)C2c2ccco2)cc1 (centres undefined),-2.1%,i,-0.85
CSCC[C@H](NC(=O)NCCC1=CCCCC1)C(=O)O,3.1%,i,-0.11
CCCCNC(=O)c1cc(-c2ccc(OC)c(OC)c2)on1,4.7%,i,-0.66
Cc1ccc(N2CC(C(=O)NC3=NCCS3)CC2=O)cc1 (centres undefined),1.8%,i,1.6
COCCNC(=O)CN(c1ccc(C)cc1)S(=O)(=O)c1ccc(SC)cc1,-3.7%,i,0.03
COC(=O)C1=C(C)NC(C)=C(C(=O)OC)C1C(=O)OCC(=O)N1c2ccccc2CC1C (centres undefined),2.4%,i,.
COCCN(CCOC)C(=O)c1c[nH]c2ccc(S(=O)(=O)N(C)c3ccc(F)cc3)cc2c1=O,-1.3%,i,0.93
O=C1CC(N2CCN(c3ccc(Cl)c(Cl)c3)CC2)C(=O)N1 (centres undefined),5.1%,i,0.72
NC(=O)N1c2ccccc2CC(=O)c2ccccc21,70%,i,1.5
COc1ccc(OCC(=O)Nc2ccc(N3CCOCC3)cc2)cc1,2.0%,i,-0.9
FC(F)(F)c1cccc(N2CCc3cn[nH]c32)c1,-11%,i,2.2
Cc1cc(C(=O)O)c(=O)[nH]c1C,1.5%,i,-0.22
O=C(O)CNC(=O)c1ccccc1NC(=O)c1ccco1,-1.0%,i,0.84
CCOc1ccc(NC(=O)c2ccc3snnc3c2)cc1,-0.2%,i,.
COc1cc(OC)cc(C(=O)NCC(=O)OC2CCOC2=O)c1 (centres undefined),5.8%,i,0.44
CC(=O)Nc1ccc(S(=O)(=O)Nc2nc3ccccc3nc2N2CCCC2)cc1,-2.5%,i,-1
CNC(=O)NCC12CC3CC(CC(C3)C1)C2,-0.1%,i,-0.45
Cc1ccc2[nH]c(=O)c(C(c3nnnn3C3CCCC3)N3CCCc4ccccc43)cc2c1 (centres undefined),3.6%,i,.
COc1cc(C)nc(N2CCCC(C(=O)NCC(C)C)C2)n1 (centres undefined),-10%,i,.
CCNS(=O)(=O)c1ccc(C(=O)Nc2ccccc2)cc1,-0.3%,i,.
Cc1ccc(CS(=O)(=O)CCC(=O)NCc2ccc3c(c2)OCO3)cc1,-4.9%,i,1.5
COc1ccc(C(=O)N2CCN(S(=O)(=O)N3CCOCC3)CC2)cc1OC,-4.8%,i,-0.85

# Filtered by structure, the entries above containing a CF3 group
SMILES,Hsc70 ATP site,MT1-MMP promoter,WNV protease inh
O=C1NC(NS(=O)(=O)c2ccc(Cl)cc2)(C(F)(F)F)C(=O)N1Cc1cccnc1 (centres undefined),-0.4%,i,.
Cn1c(NC(=O)c2ccccc2C(F)(F)F)cc(=O)n(C)c1=O,6.4%,i,0.38
CCOC(=O)C(NC(=O)c1ccccc1)(OCC1(CC)COC1)C(F)(F)F (centres undefined),-2.3%,i,.
FC(F)(F)c1cccc(N2CCc3cn[nH]c32)c1,-11%,i,2.2

# Further records follow.
SMILES,Hsc70 ATP site,MT1-MMP promoter,WNV protease inh
COc1ccc2cc(CN(Cc3ccco3)C(c3nnnn3C3CCCCC3)C(C)C)c(=O)[nH]c2c1 (centres undefined),-5.6%,i,1.8
CN(Cc1ccccc1)S(=O)(=O)c1ccc2[nH]cc(C(=O)NCC3CCCO3)c(=O)c2c1 (centres undefined),6.4%,i,0.23
Oc1ccc(Cl)cc1/C=N/c1nccs1,2.3%,i,-0.99
COc1ccc(NC(=O)N(CCO)Cc2cc3c(C)cc(C)cc3[nH]c2=O)cc1,-2.6%,i,0.19
CN(C(=O)c1ccco1)c1nc(CC(=O)Nc2ccccc2)cs1,1.3%,i,.
Cc1cc(Cl)ccc1Oc1ncc(CN2CCN(c3ccccc3)CC2)s1,0.8%,i,.
CSc1nc2ccc(NS(=O)(=O)c3ccc(Cl)s3)cc2s1,4.7%,i,0.35
Cc1cc(NC(=O)CSc2nnc(Cc3ccccc3)o2)no1,0.4%,i,2.4
Cn1c(SCc2ccc(C#N)cc2)nnc1-c1cccc(Cl)c1,4.7%,i,0.34
COC(=O)c1c(NC(=O)CSc2nnnn2-c2ccccc2)sc2c1CCCC2,2.8%,i,-0.39
CCOC(=O)c1[nH]c(C)c(C(=O)Nc2ccc3c(c2)CCC3)c1C,2.8%,i,-0.16
O=C(C1CCCCC1)N1CCN(c2ncccn2)CC1,2.8%,i,-0.07
O=C(CCN1CCN(CC(=O)Nc2ccccc2Cl)CC1)Nc1ccccc1F,-4.0%,i,0.08
CN(Cc1cc2ccccc2[nH]c1=O)S(=O)(=O)c1ccccc1,-0.2%,i,-0.27
N#Cc1nc(-c2ccc(OCc3ccc(Cl)cc3)cc2)oc1NCc1cccnc1,-3.9%,i,-1.4
CCCC(=O)Nc1nnc(CC(=O)OCC)s1,-1.1%,i,0.34
Cc1ccc(-c2noc(-c3ccccc3Br)n2)cc1,-0.6%,i,-1.9
CSCCC1NC(=O)NC1=O (centres undefined),-1.4%,i,-1.5
CN=c1sc2ccccc2n1CC(O)COc1ccccc1 (centres undefined),4.1%,i,-0.48
CSCCNC(C)=O,4.5%,i,.
O=C(NCc1nc2ccccc2[nH]1)c1ccc(S(=O)(=O)N2CCOCC2)cc1,-1.5%,i,0.31
Cc1cc(C)n(C(=O)COc2c(C)cccc2C)n1,5.6%,i,-1.3
CC(C)C(=O)c1cc2c(cc1NC(=O)c1ccccc1)OCCO2,-5.1%,i,.
CNCCCOc1cccc(OC(C)C)c1,-4.2%,i,.
Cc1ccc(NC(=O)CSC2=C(C#N)C(c3ccco3)C3=C(CCCC3=O)N2)cc1 (centres undefined),1.6%,i,-0.79

# (next part)
SMILES,Hsc70 ATP site,MT1-MMP promoter,WNV protease inh
CN(Cc1nc(-c2ccncc2)no1)S(=O)(=O)c1ccc(Cl)cc1,5.0%,i,0.78
O=C(O)c1ccc(CNc2ccccc2C(=O)O)cc1,4.9%,i,0.08
Cc1ccc(C(=O)CCC2CCCCC2=O)cc1 (centres undefined),3.5%,i,.
COCCn1nnnc1CN(CCc1ccccc1)Cc1cc2cc(OC)ccc2[nH]c1=O,0.2%,i,.
COc1ccc(CCC(=O)Nc2ccc(Br)cn2)cc1,1.3%,i,-0.48
Cc1ccc(-n2c(N)c(C(=O)N3CCN(C)CC3)sc2=S)cc1,-2.4%,i,0.25
COc1ccc(N2CCN(CCNC(=O)c3nnc(Cc4c(F)cccc4Cl)o3)CC2)cc1,-0.6%,i,0.09
CCOc1ccc(N=c2oc3cc(O)ccc3cc2C(=O)NCC2CCCO2)cc1 (centres undefined),-1.2%,i,.
CC1CCN(C(=O)Cn2c(=O)oc3ccccc32)CC1,-5.8%,i,0.72

# Assay outcomes from PubChem.
